From PubChem
Choline anaer gr = blocks anaerobic gram-negative growth on choline; Gram-negative bacterium anaerobic choline minimal medium, absorbance growth; active compounds read low; many inactives read as strong as hits in the columns shown; 55,000 compounds, 0.2% hits; calls only;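 active = growth z-score on choline under -2 at 7 or 20 h with little or no fall on glycerol, limits in tiers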;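 also: stock transfer was 300 nL into about 50 µL; the organism is E. coli; final concentration not given here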
Choline anaer gr early = second read-out of Choline anaer gr, no call of its own (marks repeat the call); z-score; measured here: choline growth z-score, timepoint 1;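 score of optical density at 7 h as mean of two plates; lower means less growth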
Starred values were filed as active, the others as inactive; i = inactive; & = joins results of further samples. Only part of the results is shown; count on the stated rates, not on these rows.

The line under a structure holds: Choline anaer gr early, Choline anaer gr
CCCc1cc(C2CCCN2S(=O)(=O)CCC)no1 (stereo not given)
→ 0.16, i
O=C(NC1CCCC1)c1cccn2c(-c3ccc(F)cc3)nnc12
→ -0.98, i
COc1ccc(S(=O)(=O)NC2CCN(C(=O)C3(c4ccccc4)CC3)CC2)cc1
→ -0.37, i
COc1ccc(-c2noc(CSc3nc(N)cc(=O)[nH]3)n2)c(OC)c1
→ 1.2, i
Cc1ncc2c(n1)CCN(S(=O)(=O)c1ccc(Br)s1)C2
→ 0.18, i
COC(=O)c1c(C)[nH]c(C(=O)N2CCCC(C(=O)N3CCCCC3)C2)c1C (stereo not given)
→ -0.99, i
O=C(Cn1ccn2nc(-c3ccccc3)cc2c1=O)N1CCCc2ccccc21
→ 0.37, i
O=C1C(=O)N(Cc2ccc(Cl)c(Cl)c2)c2ccccc21
→ 0.53&0.36, i
C=Cc1ccc(CSc2nnc3n(Cc4ccccc4)c(=O)c4ccccc4n23)cc1
→ -0.12, i
Cc1ccc(CN2CCN(C3CCN(S(=O)(=O)c4ccc5c(c4)CCCC5)CC3)C(=O)C2=O)cc1
→ 1.1, i
O=C(Nc1ccc(Br)cc1)NC(C(=O)N1CCc2ccccc21)c1ccccc1 (stereo not given)
→ 0.02, i
O=C(COc1ccc(Cl)cc1)NCC(c1ccccc1)c1c[nH]c2ccccc12 (stereo not given)
→ 0.86, i
Cc1ccc(CN2CCCC2c2cc(C)on2)cc1 (stereo not given)
→ -0.85, i
O=C(NCCCN1CCC(N2CCCCC2)CC1)C1CCN(c2ccc3nncn3n2)CC1
→ -0.48, i
Cc1nc(-c2cccs2)c(CC(=O)NC2=NCCS2)s1
→ -0.65, i
CCCn1c(=O)c2ccccc2n2c(=O)n(CC(=O)c3ccc(F)cc3)nc12
→ -0.12, i
Cc1cc(C)nc(NC(c2cccnc2)c2cc(C)sc2NC(=O)c2ccccc2)n1 (stereo not given)
→ -0.38, i
Cc1nccn1Cc1nc(C(C)C)no1
→ -0.53, i
COC(=O)c1cc(C)nc2c1c(=O)n(C)c(=O)n2C
→ 0.79, i
COc1cc(OC)c(NC(=O)C(C)Oc2cc(C(F)(F)F)c3c(C)nn(C)c3n2)cc1Cl (stereo not given)
→ -0.05, i
COCCCNC(=O)c1ccc(Nc2ccc(-c3cccc(C)c3)nn2)cc1
→ -0.99, i
CCc1nnc(-c2coc(S(=O)(=O)N3CCOCC3)c2)o1
→ -0.95, i
Cc1nn(-c2nc3ccccc3[nH]2)c2c1C(c1c(F)cccc1F)CC(=O)N2 (stereo not given)
→ 0.4, i
CCOc1ccccc1NS(=O)(=O)c1cc(-c2nc(C(C)(C)C)cs2)cs1
→ 0.14, i
CC(=O)Nc1ccc(NC(=O)CN2C(=O)CCc3cc(S(=O)(=O)N4CCCCC4C)ccc32)cc1 (stereo not given)
→ 0.14, i
Cc1ccc(CN2CCNC(=O)C2=O)cc1
→ 0.39, i
CCn1c(CN(c2ccc(F)cc2)S(C)(=O)=O)nnc1SCC(=O)N1CCOCC1
→ 0.37, i
Cc1ccc(Oc2ccc(-c3noc(C4CCCN(S(=O)(=O)c5ccc(C)cc5)C4)n3)cc2)cc1 (stereo not given)
→ 0.37, i
Cc1ccc(C2Cc3cc(C(=O)Nc4nccs4)ccc3C(=O)O2)cc1 (stereo not given)
→ 1.7, i
O=C(CCc1nc(CSc2nc3ccccc3[nH]2)no1)Nc1ccc2c(c1)OCO2
→ -1, i
COc1ccc(OCc2nnc3sc(-c4ccc5ccccc5n4)nn23)cc1
→ 0.58, i
Cc1nn(-c2ccc3nnc(C)n3n2)c2c1C(c1cccc(OCc3cccc(F)c3)c1)CC(=O)N2 (stereo not given)
→ -2, i
CCOC(=O)c1c(C)[nH]c(C)c1S(=O)(=O)NCC(=O)N1CCn2c1nc1ccccc12
→ -0.58, i
Cc1ccc(-n2ncc(C(=O)Nc3ccc(Br)cc3)c2C2CCNCC2)cc1C
→ 1.1, i
Cc1ccc(C2=Nc3ccccc3N=C(SCC(=O)Nc3ccc4c(c3)OCCO4)C2)cc1
→ 0.78, i
CCN(CC)c1ccc(NS(=O)(=O)c2cc(-c3nc(C)cs3)sc2C)c(C)c1
→ 0.26, i
Cc1ccc(NC(=O)CSc2nccn2-c2ccc(C(=O)NCc3ccccc3)cc2)cc1
→ 0.47, i
CCC(C)NC(=O)N1CCCN(S(C)(=O)=O)CC1 (stereo not given)
→ 1.1, i
Cc1ccc(S(=O)(=O)N2CCCC2C(=O)Nc2ccc(Br)cc2)cc1 (stereo not given)
→ -2, i
CCCNC(=O)c1ccc2c(=O)n(CC3CCCO3)c(SCC(=O)c3ccc(F)cc3)nc2c1 (stereo not given)
→ 0.35, i
COc1c(C)cnc(CSc2ncnc3nc[nH]c23)c1C
→ 0.2, i
Cc1cccc(Cn2c(SCc3ccc(F)cc3)nc3cccnc32)c1
→ 0.08, i
Cc1ccc2c(c1)c1c(c(=O)n(-c3cccc(Cl)c3)c(=O)n1CC(=O)N1CCCC1)n2C
→ 1.4, i
CCCCC[C@H](O)/C=C/[C@@H]1[C@@H](C/C=C\CCCC(=O)OC(C)C)[C@@H](O)C[C@H]1O
→ -1.2, i
COc1ccc(OCC(O)Cn2c(Cc3ccccc3Cl)nc3ccccc32)cc1 (stereo not given)
→ 1.1, i
O=C(NCc1ccccn1)c1ccc(CN2C(=O)CCn3nccc32)cc1
→ -0.93, i
Cc1nn(-c2nc3ccc(Br)cc3s2)c2c1C(c1ccncc1)CC(=O)N2 (stereo not given)
→ 0.23, i
CCOc1ccc(OCC)c(NS(=O)(=O)c2cc(-c3cc(C)no3)cs2)c1
→ 1.7, i
CCC(=O)N1CCc2cc(Br)c(S(=O)(=O)NCCc3ccc(S(N)(=O)=O)cc3)cc21
→ -1.8, i
Cc1ccc(NC(=O)c2ccc3nnc(SCC(=O)Nc4ccccc4Cl)n3c2)cc1
→ -1.9, i
CCc1c(C)nc2ncnn2c1Sc1ccc(NC(=O)Nc2ccc3c(c2)OCO3)cc1
→ -0.61, i
CC(C)CCNC(=O)C1(C)Cn2c(cc3occc32)C(=O)N1Cc1ccc(Cl)cc1 (stereo not given)
→ 0.83, i
O=c1[nH]nc(SCc2ccccc2)n2nc(-c3ccc(F)cc3)cc12
→ 0.88, i
CCOCCOC(=O)c1ccc2c(c1)N(Cc1ccncc1)C(=O)c1ccccc1S2
→ -0.35, i
COc1ccc(OC)c2c1cc1n2CC(C)(C(=O)NC2CCCC2)N(CCN(C)C)C1=O (stereo not given)
→ -1.6, i
O=C(c1cc(-c2cccnc2)n(-c2ccc(F)cc2)n1)N1CCN(c2ccc(Cl)cc2)CC1
→ 0.24, i
Cn1c(=O)n(C)c2cc(N3CCOCC3)c(NS(=O)(=O)c3ccc(Br)cc3)cc21
→ -0.02, i
CC(=O)N1CCN(c2ccc(OCC3CO[C@](Cn4ccnc4)(c4ccc(Cl)cc4Cl)O3)cc2)CC1 (stereo not given in full)
→ 0.52&0.39, i
Cc1cccc(-c2nccc(N3CCC(C(=O)NCC(C)C)CC3)n2)c1
→ 1.2, i
CN(C(=O)CSc1nnc(COc2ccccc2)o1)c1ccccc1
→ 0.75, i

Arranged by number of heavy atoms (lowest first): some entries from above
The line under a structure holds: Choline anaer gr early, Choline anaer gr
COc1ccc(OCc2nnc3sc(-c4ccc5ccccc5n4)nn23)cc1
→ 0.58, i
Cc1ccc(-n2ncc(C(=O)Nc3ccc(Br)cc3)c2C2CCNCC2)cc1C
→ 1.1, i
CCC(=O)N1CCc2cc(Br)c(S(=O)(=O)NCCc3ccc(S(N)(=O)=O)cc3)cc21
→ -1.8, i

Further results:
The line under a structure holds: Choline anaer gr early, Choline anaer gr
O=C(Nc1cc(F)ccc1F)C1CCCN1S(=O)(=O)c1cccc2nsnc12 (stereo not given)
→ 0.29, i
O=C(NCC1CCCCC1)C1CCN(c2cnc(N3CCCCC3)nc2)CC1
→ 1.1, i
COc1ccc(OC)c(S(=O)(=O)N2CCN(c3cc(-c4cccc(C)c4)ncn3)CC2)c1
→ 1, i
CC1(C)CC(=O)C2=C(C1)Nc1ccccc1N(CC(=O)NCc1cccnc1)C2c1ccccc1 (stereo not given)
→ 0.25, i
COc1ccccc1NC(=O)CSc1c2c(nc3ccc(Cl)cc13)CCCC2
→ 0.61, i
COc1ccc(OC)c(S(=O)(=O)NCCn2c(-c3ccncc3)nc3cccnc32)c1
→ -0.14, i
COC(=O)CC1=CC(SCC(=O)NCC2CCCO2)=Nc2ccccc2N1 (stereo not given)
→ -0.58, i
CC(N=C(NC#N)Nc1ccncc1)C(C)(C)C (stereo not given)
→ -0.23&0.4&0.23&0.06, i
CCCn1c(=O)c2cc(Cl)ccc2n2c(=O)n(CC(=O)N3CCN(c4ccc(F)cc4)CC3)nc12
→ 0.59, i
O=C(Cn1nc(C(=O)Nc2ccccc2)ccc1=O)Nc1ccccc1
→ 0.91, i
COc1ccc(NC(=O)n2ncc3ccccc32)c(OC)c1
→ 1.2, i
CC(C)c1ccc(S(=O)(=O)NCCn2c(-c3ccc(F)cc3)nc3cccnc32)cc1
→ 0.28, i
COc1ccc(Cn2nnc3cc(C(=O)NCc4cccc(Cl)c4)ccc32)cc1
→ 1.4, i
COc1ccc(C2=C(O)C(=O)N(CCc3ccccc3)C2c2ccc(Cl)cc2)cc1 (stereo not given)
→ -0.58, i
COc1ccc(NC(=O)c2cccn2-c2cccnc2)cc1
→ -0.69, i
O=C(NCc1noc2ccccc12)Nc1ccc(F)cc1
→ -0.51, i
CCN(CC)CCNC(=O)C1CCCN(S(=O)(=O)c2ccc3c(ccn3CC)c2)C1 (stereo not given)
→ 0.84, i
Cc1cccc2c1cnn2C(=O)CCC(=O)NC1CCCc2ccccc21 (stereo not given)
→ -1.4, i
Cn1c(=O)c(-c2noc(C(=O)NC3CCCC3)n2)nn(-c2ccc(F)cc2)c1=O
→ -1.7, i
CCc1nnc(-c2csc(S(=O)(=O)N3CCOCC3)c2)o1
→ -0.53, i
CCc1cc(C2CCCN2C(=O)Nc2ccc(Br)cc2F)on1 (stereo not given)
→ -1.1, i
Clc1ccc2nc(-c3ccccn3)c(Nc3ccc4c(c3)OCCO4)n2c1
→ -0.12, i
CCCc1cc(C2CCCN2Cc2ccc(Cl)cc2)no1 (stereo not given)
→ 0.32, i
COCc1nc2scc(-c3ccccc3)c2c(=O)[nH]1
→ 0.16, i
CN(C)C(=O)c1ccc2c(c1)NC(=O)CS2
→ -0.74, i
Cc1nn(C)c2ncc(C(=O)NCCC3=CCCCC3)c(NCc3ccccc3)c12
→ 0.99, i
Cc1cc(NS(=O)(=O)c2cc(-c3nc(C)c(C(=O)N4CCC(C)CC4)s3)n(C)c2C)no1
→ -0.42, i
COc1cc(OC)c(NC(=O)Nc2ccccc2SCc2cc(=O)n3oc(C)cc3n2)cc1Cl
→ 1.4, i
COc1ccc(C2Sc3ccccc3N(CCN(C)C)C(=O)C2OC(C)=O)cc1 (stereo not given)
→ 0.44, i
CCOC(=O)c1ccccc1NC(=O)CSc1ncc(CO)n1Cc1ccc(F)cc1
→ -0.12, i

Reprinted at random: 2 entries already listed
The line under a structure holds: Choline anaer gr early, Choline anaer gr
Clc1ccc2nc(-c3ccccn3)c(Nc3ccc4c(c3)OCCO4)n2c1
→ -0.12, i
COc1ccc(NC(=O)c2cccn2-c2cccnc2)cc1
→ -0.69, i

Two entries from above, with the structure last:
| Choline anaer gr early | Choline anaer gr | compound |
| --- | --- | --- |
| 1.2 | i | COc1ccc(NC(=O)n2ncc3ccccc32)c(OC)c1 |
| -0.51 | i | O=C(NCc1noc2ccccc12)Nc1ccc(F)cc1 |

The list goes on:
The line under a structure holds: Choline anaer gr early, Choline anaer gr
COc1ccc(-c2cc(OC(=O)c3ccc(F)cc3)c3c(C)oc(C)c3c(=O)c2)cc1OC
→ -0.57, i
COc1cccc(CNC(=O)CCc2ccc(-n3cnc4cccnc43)cc2)c1OC
→ -0.3, i
Clc1nccc2c1ccc1ccccc12
→ 1.1, i
Cc1ccc(C(=O)Cn2c3c(sc2=N)CCCC3)cc1
→ 0.44&-0.2&-0.3&0.56, i
Cc1nc(C)c(-c2nc(-c3cc4c(C)nn(-c5ccccc5)c4s3)no2)s1
→ -1.4, i
CCCNC(=O)NC1CCN(c2nc(C)cc(C)n2)CC1
→ 1, i
Cc1csc(-n2[nH]c(C)c(CC(=O)Nc3cc(Cl)ccc3C)c2=O)n1
→ -1.4, i
COC(=O)c1c(C)[nH]c(C(=O)N2CCC(CC(=O)NC(C)CCc3ccccc3)CC2)c1C (stereo not given)
→ 0.44, i
Cc1cc2[nH]c(C(=O)NCCCN3CCOCC3)c(CN3CCCCC3)c2s1
→ 0.44, i
Cc1ccc(-c2cnc3c(-c4ccc(Cl)cc4)cnn3c2N)cc1
→ -0.28, i
O=c1c(NC2CCCC2)c(-c2ccccc2)c1=O
→ -0.33, i
Cc1cc2[nH]c(=O)[nH]c2cc1S(=O)(=O)NC1CCCC1
→ -0.72, i
CCn1cccc1-c1nc(C)c(C(=O)Nc2cc(C)cc(C)c2)s1
→ -0.47, i
COc1cccc(Sc2nc3ccccc3n3c(=O)n(CC(=O)NC4CCCCC4)nc23)c1
→ -0.1, i
CCOC(=O)c1c(C)n(-c2ccc(C)cc2)c2ccc(OCC(O)CN3CCCCC3C)cc12 (stereo not given)
→ 0.76, i
Cc1ccc(C)c(NC(=NCc2ccncc2)NC(=O)c2ccc(CN3CCOCC3)cc2)c1
→ -2.9, i
O=C(CCC(=O)N1CCc2cc(S(=O)(=O)NCCC3=CCCCC3)ccc21)N1CCCCC1
→ 1.6, i

Structures above that contain a furan ring, fused or not, in the order listed:
The line under a structure holds: Choline anaer gr early, Choline anaer gr
CCc1nnc(-c2coc(S(=O)(=O)N3CCOCC3)c2)o1
→ -0.95, i
CC(C)CCNC(=O)C1(C)Cn2c(cc3occc32)C(=O)N1Cc1ccc(Cl)cc1 (stereo not given)
→ 0.83, i
COc1ccc(-c2cc(OC(=O)c3ccc(F)cc3)c3c(C)oc(C)c3c(=O)c2)cc1OC
→ -0.57, i
